Source: PubChem
PrP UTR inh – inhibition of PrP 5' UTR reporter expression | cell-based PrP 5' UTR mRNA reporter, plate reader | inhibition, % (concentration not given with the values) | 340,000 compounds, 0.35% hits;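 active = every replicate at 50% or more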;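 also: 0 = median of the neutral control wells; tested in H4 reporter cells; numbers are from one replicate; inactives centre near -14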
BJeLR viability – MLPCN primary cell-based screen for lethality selective to Ras in HRASV12 cells; BJeLR (HRASV12) viability, CellTiter-Glo ATP luminescence, 48 h; reference of the scale not given here; 300,000 compounds, 0.17% hits; AID 1554, 2009; inhibition, % (test concentration not listed);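 active = replicate mean above 50%; inconclusive = above 50% but judged a plate artefact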;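 also: 50 nL library stock added to about 25 µL; numbers are from one replicate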
RN4220 kill – growth inhibition of S. aureus RN4220, primary screen, OD600; inhibition, % (concentration not given with the values); 330,000 compounds, 0.33% hits; 16 h;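 active = z-score of -3 or lower and OD600 up to 0.18 on both plates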;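 also: plate controls were untreated cells for no effect and reference antibiotic for full effect; stock transfer was 100 nL into about 80 µL; one replicate is shown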
ugtP null kill – growth inhibition of ugtP-null S. aureus, primary screen, RN4220 ugtP deletion, OD600; 330,000 compounds, 0.54% hits; 16 h; some inactives read as strong as hits; AID 1259309, 2017; growth inhibition, % (no concentration beside the values);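 active = z-score under -3 and OD600 up to 0.15 on both plates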;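 also: plate controls were untreated wells for no effect and antibiotic for full effect; wells of about 80 µL received 100 nL stock; the first replicate is given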
Mtb hypoxia rep – PubChem AID 1159583; M. tuberculosis hypoxia-regulated fluorescent reporter, fluorescence; 300,000 compounds, 0.1% hits; fluorescence inhibition, % (test concentration not listed);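 active = 35 to 45% if threefold the growth effect, above 45% if 1.5-fold the growth effect; inactive = the rest, general growth blockers included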;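 also: wells of about 50 µL received 100 nL stock; 0% = vehicle wells and 100% = reference inhibitor wells; whole bacteria with a GFP reporter of the hypoxia response; strong numbers were not always called active; many hits fall short of the cut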
Bead autofluor – counter-screen for toxin protease inhibitors: compound fluorescence; 360,000 compounds, 3.1% hits; compound autofluorescence counterscreen, microsphere flow cytometry; active compounds read high; fluorescence intensity (test concentration not listed); AID 624483;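 active = at least 3 SD above the mean of all compounds, about 16000 in these data; inconclusive = too few beads counted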;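 also: 100 nL of 1 mM stock went into each well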
Mtb hypoxia rep growth – further read-out of Mtb hypoxia rep, marked with its call; growth inhibition, %; measured here: M. tuberculosis growth (absorbance);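 0% = vehicle and 100% = reference antibiotic; read after six days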
* = called active by the depositor; ? = inconclusive; . = not tested or not shown. Random draw from the library. Share with any hit: about 4%.

SMILES	PrP UTR inh	BJeLR viability	RN4220 kill	ugtP null kill	Mtb hypoxia rep	Mtb hypoxia rep growth	Bead autofluor
CC(=NNC(=O)c1ccccc1F)c1ccccn1	.	.	8.6	-2	-7	3	.
COC(=O)Nc1ccc(OC)c(OC)c1	-14	1	4.0	3	6	7	10028
CCC(C)(C)n1nnnc1C(c1ccccc1F)N1CCC(C(N)=O)CC1 (configuration not stated)	-2	1	2.9	-4	.	.	2252
CC(C)c1ccc(NC(=O)COC(=O)C2CC3C=CC2C3)cc1 (configuration not stated)	-14	.	4.0	3	-4	1	4426
O=C(NNc1cc(Cl)cc(Cl)c1)c1cccs1	-33	-11	-6.6	-11	7	2	.
O=C(N1CCOCC1)N1CCC(NC(=O)C23CC4CC(CC(C4)C2)C3)CC1	-30	7	3.3	-2	-96	17	4807
COc1ccc(C2/C=C\CN(CC(C)(C)C)CC(=O)N2Cc2ccc(F)cc2)cc1 (configuration not stated)	5	1	.	.	.	.	4705
O=C1C=C(c2ccc(C(=O)O)c(Cl)c2)CC(c2ccc3c(c2)OCO3)C1 (configuration not stated)	.	.	9.0	5	-5	3	.
O=C(NN=Cc1ccc2c(c1)OCO2)c1cccnc1	.	.	-2.8	5	3	-2	.
O=C(Nn1cnnc1)c1ccncc1	-9	11	3.4	3	4	8	4008
CCc1ccc(OCC(=O)Nc2ccncc2)c(Br)c1	-69	25	5.6	0	7	17	3586
O=C(c1ccc2ccccc2c1)N1CCc2ccccc21	-25	-2	5.5	3	12	2	4860
O=C1C=CN2CCCC2CC1 (configuration not stated)	-7	.	4.5	0	3	-4	4109
Cc1ccc(C)c(N2CCN(C(=O)CCNS(=O)(=O)c3ccc4c(c3)oc(=O)n4C)CC2)c1	-7	6	6.2	0	10	0	5948
O=C(Nc1ccc2c(c1)CCC2)c1cnccn1	-90	3	6.2	-4	23	12	20322*
Cc1ccc2[nH]c(-c3ccccc3)c(CN3CCN(C)CC3)c(=O)c2c1	-7	-5	3.4	8	0	-3	4343
Nc1nonc1-n1nnc(C(=O)N/N=C/c2cccc(Cl)c2)c1CN1CCCC1	-22	6	.	.	.	.	6005
COc1ccc(C2SCC(=O)N2c2c(C)n(C)n(-c3ccccc3)c2=O)c(OC)c1 (configuration not stated)	-14	1	-1.6	0	5	0	3556
C=CCn1c(SCCC#N)nnc1-c1ccncc1	-13	5	4.7	1	7	12	9865
c1ccc(N2CCN(c3cnccn3)CC2)nc1	-16	-4	0.1	-3	2	3	3091
CCN1CCN(CCCNC(=O)CCC(=O)N2CCOc3ccc(Cl)cc32)CC1	0	-1	13	8	0	7	5580
COc1ccc(CC2(CO)COc3ccccc3C2=O)cc1 (configuration not stated)	-23	-3	6.6	-2	6	8	5366
Cc1cc(Cl)ccc1NC(=O)CSc1n[nH]c(N)n1	-13	.	1.1	2	13	8	3042
CC(=O)Nc1ccc(S(=O)(=O)N2CCN(c3nc(C)cc(C)n3)CC2)cc1	-1	12	2.1	4	12	3	4297
COc1ccc(O)c(C=NNC(=S)NCCc2ccccc2)c1	.	.	3.1	18	12	3	.
Cc1cccc(NC(=O)C(C)N2CC=C(c3ccccc3)CC2)c1 (configuration not stated)	32	-6	2.7	0	-4	4	4247
CCOc1ccc(Br)cc1C=NNC(=O)c1ccncc1	.	.	-9.0	-8	.	.	.
Nc1cc(=O)[nH]c(SCC(=O)NCC2CCCO2)n1 (configuration not stated)	-16	-10	0.5	1	-6	-1	10010
CCN(c1ccccc1)S(=O)(=O)c1ccc(Oc2ccc([N+](=O)[O-])cc2)nc1	-18	1	1.7	10	-7	5	5213
Cc1c(NC(=S)NCc2ccc(F)cc2)cccc1[N+](=O)[O-]	-15	5	-9.5	-4	8	3	2320

Grouped by structure, those above with a Cl atom
SMILES	PrP UTR inh	BJeLR viability	RN4220 kill	ugtP null kill	Mtb hypoxia rep	Mtb hypoxia rep growth	Bead autofluor
O=C(NNc1cc(Cl)cc(Cl)c1)c1cccs1	-33	-11	-6.6	-11	7	2	.
O=C1C=C(c2ccc(C(=O)O)c(Cl)c2)CC(c2ccc3c(c2)OCO3)C1 (configuration not stated)	.	.	9.0	5	-5	3	.
Nc1nonc1-n1nnc(C(=O)N/N=C/c2cccc(Cl)c2)c1CN1CCCC1	-22	6	.	.	.	.	6005
CCN1CCN(CCCNC(=O)CCC(=O)N2CCOc3ccc(Cl)cc32)CC1	0	-1	13	8	0	7	5580
Cc1cc(Cl)ccc1NC(=O)CSc1n[nH]c(N)n1	-13	.	1.1	2	13	8	3042

Additional compounds follow.
SMILES	PrP UTR inh	BJeLR viability	RN4220 kill	ugtP null kill	Mtb hypoxia rep	Mtb hypoxia rep growth	Bead autofluor
Cc1ccc2sc(C)[n+](CCCS(=O)(=O)[O-])c2c1	-1	1	1.1	10	11	7	1929
CN1CCN(C(=O)c2cc(COc3c(F)cccc3F)on2)CC1c1ccccc1 (configuration not stated)	-16	-5	0.9	7	4	4	2039
S=C(NCc1ccccn1)Nc1ccc(Cl)cc1	-13	-4	1.8	7	.	.	2879
Cc1cccc(/C(N)=N/OC(=O)c2ccco2)c1	-44	7	.	.	.	.	2479
O=C(NCc1ccccn1)C1(C(F)(F)F)CC(=CCCO)CCCO1 (configuration not stated)	.	.	0.7	3	6	9	.
Cc1cccc(C(=O)N2CCCC(Nc3ccc(C(C)C)cc3)C2)n1 (configuration not stated)	-14	-2	7.3	15	3	-1	4038
Nc1c(C(=O)N2CCOCC2)sc2nc3c(cc12)CCC3	-33	9	3.4	10	2	14	6138
COc1cc(-c2noc(C)c2C=Cc2ccc(OC(C)=O)cc2)cc(OC)c1OC	.	.	4.9	9	-2	-4	.
Cc1noc(C)c1S(=O)(=O)N1CCC(C(=O)NCCCN2CC(C)CC(C)C2)CC1 (configuration not stated)	-26	3	3.9	7	5	7	4423
CC(C)NC(=O)c1ccccc1-c1ccccc1	-4	-9	5.0	3	6	10	?
Cc1n[nH]c(C)c1CCC(=O)N/N=C/C=C/c1ccccc1	-13	3	.	.	.	.	2040
C/C(=N\Nc1ccc(C(F)(F)F)cn1)c1ccncc1	-32	4	.	.	.	.	3574
CC(C)CNC(=O)c1cccc(C(=O)NCC(C)C)c1	-33	-7	6.1	2	12	5	10048
O=C(NN=Cc1ccc(Br)cc1)c1ccc(Cn2cccn2)o1	.	.	8.4	0	-4	3	.
COc1ccc(-n2c(=O)[nH]c3cc(C(=O)NCCc4ccccc4)ccc3c2=O)cc1OC	-18	-11	-0.3	1	-6	-1	4106
CC(NC(=O)CNC(=O)c1ccccc1F)c1ccc(-n2ccnc2)cc1 (configuration not stated)	-8	.	1.1	6	21	35	3112
Cc1ccc([N+](=O)[O-])cc1NC(=O)C(C)NS(=O)(=O)c1ccc(F)cc1 (configuration not stated)	-17	8	0.9	-5	2	11	3463
CCC(C)NC(=O)COC(=O)c1cc([N+](=O)[O-])ccc1Sc1nc(C)cs1 (configuration not stated)	-8	-4	-14	-7	18	9	2864
Cc1ccnc(NC(=O)c2cc(F)c(F)cc2Cl)n1	-17	-11	-1.0	5	16	12	4920
CCCCCc1cc(=O)oc2c(C(CCN3CCCCC3)c3ccc4c(c3)OCO4)c(OC)cc(OC)c12 (configuration not stated)	0	3	13	18	.	.	4354
COc1cc2nc3occc3c(OC)c2cc1OC	8	-6	5.1	-5	9	10	3899
COc1ccc(Cl)cc1C(=O)NCC(C)C	-26	6	0.6	5	.	.	4185
C#CCSc1nnc(CSc2nc3ccccc3s2)n1-c1ccccc1	-14	-8	11	-2	5	3	?
CC1(C)Cc2c(sc3nc4n(-c5ccccc5)cnn4c(=O)c23)CO1	-20	-2	1.4	-2	20	11	3296
CS(=O)(=O)N(Cc1ccc(Cl)cc1)c1ccc(C(=O)Nc2cccnc2)cc1	-15	4	1.1	-3	1	3	10050
Cc1cccc(NC(=O)Cn2nnc(C(=O)NCc3ccco3)c2N)c1	-18	2	0.6	9	-3	-4	2228
Cc1ccccc1-c1noc(CNC(=O)COc2ccccc2)n1	-6	-1	-3.8	-4	12	1	6598
O=C(CSc1ncn[nH]1)c1cccc([N+](=O)[O-])c1	-15	0	6.5	8	-4	5	1918
Cc1ccc(CNC(=O)c2cc(C3CC3)nc3c2cnn3C(C)C)cc1	-2	.	-2.9	-1	11	-1	2670
COc1ccccc1CCNC(=O)CSc1nnc2ccc(-c3ccncc3)nn12	3	4	-3.2	-6	-10	12	4245

Later entries.
SMILES	PrP UTR inh	BJeLR viability	RN4220 kill	ugtP null kill	Mtb hypoxia rep	Mtb hypoxia rep growth	Bead autofluor
Cc1ccc(S(=O)(=O)N2CCN(c3ccccc3)CC2)cc1C(=O)NC1CCCCC1	-14	-4	1.5	9	3	1	4214
COc1ccc(-c2csc(NC(=O)c3ccc(S(C)(=O)=O)cc3)n2)cc1	-13	-3	5.1	5	19	0	3360
CCn1nc(C(=O)OCC(=O)Nc2nc(-c3ccc(OC)cc3)cs2)c2ccccc2c1=O	-92	-1	4.6	37	-1	4	2528
O=C(CSc1ncnc2nc[nH]c12)c1ccc2ccccc2c1	-40	0	-2.0	5	15	17	2541
CC(CC(=O)NC1C2CC3CC(C2)CC1C3)=NNC(=O)Cc1cccs1 (configuration not stated)	.	.	3.8	10	11	4	.
CCC1Oc2ccccc2N(CC(=O)Nc2ccc(OC)cc2OC)C1=O (configuration not stated)	-25	-5	-0.4	1	7	9	11471
COc1ccc2c(c1)CC[C@@H]1[C@@H]2CC[C@]2(C)[C@@H](C(C)=O)C[C@@H]12	1	3	.	.	.	.	2846
NNC(=S)NC1CCS(=O)(=O)C1 (configuration not stated)	.	-8	-0.1	5	-8	-6	4317
CCCCNC(=O)CS(=O)Cc1nc(-c2cccc(C)c2)oc1C (configuration not stated)	-23	-1	4.6	5	8	5	6057
O=C1N[C@@H](Cc2ccccc2)C(=O)N2[C@H]1C[C@]1(Br)c3ccccc3N(S(=O)(=O)c3ccccc3)[C@H]21	8	1	.	.	.	.	3725
Cc1ccc(S(=O)(=O)Nc2cccc(C(=O)NCCCN3CCOCC3)c2)cc1F	-18	4	-4.3	-8	-8	-6	3760
O=C(NC1CC1)c1ccc2c3c(cccc13)CC2	-17	3	2.8	-8	2	5	6577
CCCC(C)NC(=O)CSc1nc(-c2ccccc2)cn1N (configuration not stated)	-44	-5	4.0	6	-1	11	3975
COc1ccc(-c2noc(CN(Cc3nccn3C)C(C)C)n2)cc1	-10	-4	6.1	6	17	-1	4188
Nc1nnnn1CC(=O)NN=Cc1cc([N+](=O)[O-])ccc1O	.	.	93*	81	4	8	.
Cc1cccc(N2CCN(C(=O)c3ccc(S(=O)(=O)N(C)c4ccccc4)cc3)CC2)c1C	-11	.	5.0	8	-4	8	3752
COc1ccc(C(OC(=O)c2ccco2)C(=O)NC(C)(C)C)cc1OC (configuration not stated)	-21	.	-0.8	8	3	-9	3344
COc1cc(C)c(CN2CCN(c3ncccn3)CC2)cc1C	.	1	1.3	8	10	18	.
N#CCCN(C(=O)COC(=O)c1ccc2c(c1)NC(=O)CS2)c1ccc2c(c1)OCCO2	-10	-4	-3.2	56	8	5	3638
Cn1ncc(Br)c1C(=O)NC1C2CC3CC(C2)CC1C3 (configuration not stated)	-8	-1	5.6	4	11	2	2545
CCCCn1c(SCC(=O)N2CCC(C)CC2)nc2cc(S(N)(=O)=O)ccc21	-2	-3	0.1	-3	-6	1	8431
Fc1ccc2cc(-c3ccccc3F)ncc2c1	-62	.	14	0	7	2	3043
O=c1[nH]c(=S)[nH]c(O)c1N=Nc1ccc(S(=O)(=O)N2CCOCC2)cc1	2	1	4.4	5	4	9	4251
CCCCOC(=O)Nc1nccs1	-19	1	6.2	11	19	5	9578
Cc1ccc(C)c(S(=O)(=O)NCc2ccc(C(=O)N3CCCCCC3)cc2)c1	3	-5	5.1	6	0	-13	9663
CCNC(=S)NN=C(C)c1ccc2c(c1)OCCO2	.	.	9.1	4	2	6	.
